Bioassay records from PubChem BioAssay.
VACV mCherry inh: qHTS for Stage-Specific Inhibitors of Vaccinia Orthopoxvirus: mCherry Reporter Primary qHTS; Potency, µM (series often up to 36.5 µM), for inactives: at the highest dose activity change, negative = inhibition, usual class: inhibitors; Vaccinia virus mCherry reporter infection, fluorescence; about a quarter of the inactives have no number; AID 720579, 2013; actives 0.63% (n = 310,000); active = well fitted inhibition curve with a large enough effect; inconclusive = small, poorly fitted or top-dose-only effect; inactive = no such curve, though single readings can be large or run the other way; tested in A549 cells; further: nearly all actives have a fitted effect of over 35% in size; inactives centre near -10
VACV Venus inh: qHTS for Stage-Specific Inhibitors of Vaccinia Orthopoxvirus: Venus Reporter Primary qHTS | actives 0.46% (n = 330,000) | AID 720580, 2013 | Vaccinia virus Venus reporter expression, fluorescence | Potency, µM (doses to about 36.5 µM), without a hit: top-dose activity change, negative = inhibition, most hits filed as inhibitors; active means well fitted inhibition curve with a large enough effect; inconclusive means small, poorly fitted or top-dose-only effect; inactive means no such curve, though single readings can be large or run the other way; tested in A549 cells; further: nearly all actives have a fitted effect of over 30% in size; inactives centre near -10
The depositor's hits bear a star; i = inactive; ? = inconclusive; · = no result given; & = joins results of further samples; [ ] = dose if it differs, or a comment. On the % scale 0 is the no-effect control and ±100 the full control effect; potency means the concentration at half of the fitted maximal effect. Outcome played no part in choosing rows; 0.86% or so of the library scored in one or more.

SMILES	VACV mCherry inh	VACV Venus inh
COc1cc(O)c(C(CC(=O)N2CCCC2)c2cc(OC)c(OC)c(OC)c2)c(OC)c1 (stereo not drawn)	-3%	3%
Cc1ccc(NC(=O)c2cc(S(=O)(=O)N3CCCC(C)C3)cn2C)c(Br)c1 (stereo not drawn)	-13%	-15%
Clc1ccc(C=NN2CCCCCC2)c(Cl)c1	-13%	-13%
COC(=O)CSc1nnc(-c2sc3ccccc3c2Cl)o1	-4%	5%
O=C(Nc1ccccc1C(=O)NCCN1CCOCC1)c1ccc(Cl)cc1Cl	i	0%
COc1ccc(C(CC(=O)NCc2ccc(Cl)cc2)N2Cc3ccccc3C2=O)cc1OC (stereo not drawn)	-2%	-16%
Cc1ccccc1C1C(C#N)=C(N)N(N(C)C)C2=C1C(=O)CC(C)(C)C2 (stereo not drawn)	-12%	-8%
O=C(NS(=O)(=O)c1ccc2ccc(S(=O)(=O)NCCSc3ccccc3)cc2c1)c1cccc2ccccc12	41%[activator]	-3%
COc1ccc(CN(C(=O)/C=C/c2ccco2)C2CCS(=O)(=O)C2)cc1OC (stereo not drawn)	-12%[7.34 µM]	-1%[7.34 µM]
COCCn1c(=S)[nH]c2cc(C(=O)NC3CCCCC3C)ccc2c1=O (stereo not drawn)	i	-23%
O=C(COC(=O)c1cccs1)Nc1cccc(S(=O)(=O)N2CCCCC2)c1	-11%	-6%
CCn1cc([N+](=O)[O-])c(C(=O)NCc2ccc3c(c2)OCO3)n1	-20%	-5%
CC(C)(C)NC(=O)C(c1ccsc1)N(CCc1ccccc1)C(=O)Cn1nnc2ccccc21 (stereo not drawn)	i	-8%
Cc1cnccc1/C=C/c1ccc(N)cc1	-13%	13%
c1ccc(-c2cn3nc(-c4ccccc4)cnc3n2)cc1	i	-12%
Cc1ccc(C2=NOC(C)(c3nnc(-c4ccncc4)o3)C2)cc1 (stereo not drawn)	i	2%
COc1ccc(C(=O)C[n+]2cccc3cc(Cl)ccc32)cc1	-9%	79%[activator]
O=C(NC(=S)Nc1cccc(O)c1)C1CCCCC1	-16%	-24%
Cc1cc(SCCC(=O)O)nc2ccccc12	·	0%
NC(=O)CC(NC(=O)Cc1ccc(Br)cc1)c1ccc(NCCOc2ccccc2)c([N+](=O)[O-])c1 (stereo not drawn)	?	-11%
O=C(Nc1ccc(CN2CCOCC2)cc1)c1cc2ccccn2n1	-18%	-17%
COC(=O)CNC(=O)CN1c2cccc3cccc(c23)S1(=O)=O	i	-23%
COc1cc(/C=C(\C#N)C(=O)Nc2ccccc2F)ccc1OCCN1CCOCC1	-12%	-16%
CCCN1Cc2cc(OC)ccc2-c2ccccc2S1(=O)=O	i	-14%
COCC(=O)N/N=C\c1cccc(OC)c1OC/C=C/c1ccccc1	?	-12%
O=C(C[n+]1cccc(Br)c1)c1ccccc1	-3%&9%	-5%&-5%
Cc1nnc(SCC(=O)Nc2ccc(N3CCOCC3)cc2)o1	2%	8%
Cc1ccc(Oc2cc(N3CCOCC3)nc(-c3ccccc3)n2)cc1	·	-4%
CC1(C)CC(=O)c2cc(C(=O)NNc3ccccc3)c(=O)n(-c3ccccc3)c2C1	-14%	-3%
O=C(CN1CCCCC1)NCC1(c2ccccc2)CCCC1	-23%	5%
O=C(c1ccccc1[N+](=O)[O-])n1cnc2ccccc21	i	-1%
COCCN(Cc1nc(C2(c3ccc(C)cc3)CCCC2)no1)C(C)C	i	-10%
Fc1ccc(-c2nc3c4ccccc4ccn3c2Cc2ccccc2)cc1	-18%	1%
CCOc1ccc(Cl)cc1S(=O)(=O)n1nnc2ccccc21	-18%	-12%
COC(=O)c1ccc(COc2ccccc2/C=N/NC(N)=O)o1	-16%	-19%
COc1ccc(-c2cc(C(F)(F)F)n3nc(C(=O)N(C)Cc4ccccc4)cc3n2)cc1OC	-15%	-12%
CCN1CCN(S(=O)(=O)c2ccc(OC)c(NC(=O)c3ccccc3)c2)CC1	-7%	-19%
COc1cccc(C(=O)C2CCCN(Cc3cccc(-n4nc(C)cc4C)c3)C2)c1 (stereo not drawn)	i	-13%
COc1cc(C=c2c3ccccc3n3c2cc(-c2ccccc2)[n+]3C)cc(OC)c1OC	·	263%[activator]
CCOc1ccc(/C=C/C(=O)N(CC)CC(=O)Nc2c(F)cccc2F)cc1OC	-15%	-19%

Overlap with the part before: seven entries; new compounds follow.
SMILES	VACV mCherry inh	VACV Venus inh
CCOc1ccc(Cl)cc1S(=O)(=O)n1nnc2ccccc21	-18%	-12%
COC(=O)c1ccc(COc2ccccc2/C=N/NC(N)=O)o1	-16%	-19%
COc1ccc(-c2cc(C(F)(F)F)n3nc(C(=O)N(C)Cc4ccccc4)cc3n2)cc1OC	-15%	-12%
CCN1CCN(S(=O)(=O)c2ccc(OC)c(NC(=O)c3ccccc3)c2)CC1	-7%	-19%
COc1cccc(C(=O)C2CCCN(Cc3cccc(-n4nc(C)cc4C)c3)C2)c1 (stereo not drawn)	i	-13%
COc1cc(C=c2c3ccccc3n3c2cc(-c2ccccc2)[n+]3C)cc(OC)c1OC	·	263%[activator]
CCOc1ccc(/C=C/C(=O)N(CC)CC(=O)Nc2c(F)cccc2F)cc1OC	-15%	-19%
CN1C(=O)C(CC#N)(C2(CC#N)C(=O)N(C)c3ccccc32)c2ccccc21 (stereo not drawn)	i	-2%
O=C(NC1CCCCC1)c1cc(-c2ccc(Cl)cc2)on1	12%	4%
N/C(=N\OC(=O)c1ccc2ccccc2c1)c1cccc([N+](=O)[O-])c1	-1%	-16%
O=C1NC(=S)NC(=O)C12C(c1ccccc1)NC(=S)NC2c1ccccc1 (stereo not drawn)	?	-12%
Cc1ccsc1C(=O)C1CCCN(Cc2cc(F)ccc2-n2cccn2)C1 (stereo not drawn)	-24%	-11%
CCn1ccnc1CN1CCC(n2nccc2NC(=O)c2ccccc2OC)CC1	-11%	1%
O=C(CN1C(=O)/C(=C\c2cccs2)SC1=S)Nc1cccc(C(=O)O)c1	?	-9%
Cc1sc2ncn(CC(=O)N3CCN(c4cccc(Cl)c4)CC3)c(=O)c2c1S(=O)(=O)N1CCC(C)CC1	-15%	-20%
O=C(CSc1nnc(Nc2ccccc2)s1)Nc1cccc(S(=O)(=O)N2CCCCC2)c1	?	-30%
N#CCC(=O)c1sccc1-n1cccc1	?	-21%
COc1ccc(C(=O)c2ccccc2O)c(O)c1	-1%&-13%	-9%&-6%
CSc1ccc(N=Nc2c(C)[nH]n(C)c2=O)cc1	-1%	-1%
C#CCOCCOCCOCCNc1nc(N2CCOCC2)nc(N2CCN(C(=O)[C@H](Cc3cc4ccccc4[nH]3)n3cc([C@@H](N)CC(C)C)nn3)CC2)n1	7%	-12%
CN=C(c1ccccc1)c1c(C)cccc1C	-6%	-17%
Cc1c(C(=O)NCC2COc3ccccc3O2)oc2ccc(S(=O)(=O)N3CC(C)CC(C)C3)cc12 (stereo not drawn)	i	-8%
Cc1ccc2c(c1)N(C(=O)N1CCC(C(=O)NC3CCCCCC3)CC1)CCO2	-8%	-11%
Cc1cccc(C(=O)Nc2nc(-c3ccc(Br)cc3)ns2)c1	10%	2%
O=C(CCNS(=O)(=O)c1ccc(Cl)cc1)N1CCN(c2ncccn2)CC1	-14%	-14%
NC(=O)[C@@H]1CCCN1C(=O)c1cc(NC(=O)c2ccccc2)cc2ncn(C3CCCC3)c12	i	-14%
CC1(C)CSC(Nc2ccc(F)c(Cl)c2)=N1	-17%	?
Cc1nnc(NC(=O)CCN2C(=O)/C(=C\c3ccccc3)SC2=S)s1	i	-4%
O=C(CNS(=O)(=O)c1ccccc1)N1CCN(c2ccccc2)CC1	0%	15%
O=C(Nc1cccc(Cl)c1Cl)C1CC(=O)N(c2ccc(Br)cc2)C1 (stereo not drawn)	-29%	?
NNC(=O)c1nc[nH]c1C(=O)Nc1ccccc1[N+](=O)[O-]	-22%	-23%
N#Cc1c2n(c(=O)[nH]c1=O)CCCCC2	·	-18%
COC(=O)c1sc(NC(=O)COc2ccccc2C)nc1C	i	-1%
O=[N+]([O-])c1cccnc1N1CCC(c2cc(-c3ccc(Cl)cc3Cl)n[nH]2)CC1	?	?
CCC(C(=O)NCc1ccccc1)n1ncn2c(cc3occc32)c1=O (stereo not drawn)	-3%	5%
CN(C)C(=O)c1ccc2c(c1)N(CC(=O)NCc1ccccc1Cl)C(=O)C1CCCCN21 (stereo not drawn)	-7%	-10%
O=c1c(-c2ccccc2)c(O)nc(SCCN2CCOCC2)n1-c1ccccc1	i	-10%
O=C(O)CCCCCCCCc1cn(Cc2ccc(C(=O)c3ccccc3)cc2)nn1	-6%&-8%	-27%&-21%
O=C(Nc1ccccc1F)c1oc2ccccc2c1NC(=O)C12CC3CC(CC(C3)C1)C2	-6%	-8%
O=C(Nc1nc2n(n1)C(c1ccccc1)C=C(c1ccc(Cl)cc1)N2)c1ccco1 (stereo not drawn)	-8%	-8%
Cc1nc2ccc(S(=O)(=O)NCC(=O)N3CCc4ccccc43)cc2s1	i	-14%
O=C(COC(=O)c1ccc(S(=O)(=O)N2CCCC2)cc1)Nc1ccccc1Cl	-3%	0%
CCOc1ccc(N(C(=O)c2snc(C(N)=O)c2N)C(C(=O)NC2CCCC2)C(C)C)cc1 (stereo not drawn)	i	-8%
CCOC(=O)c1nn(-c2cccc(OC)c2)c(-c2ccccc2)c1C(=O)c1ccccc1	·	-13%
COc1ccc(CCNC(=O)C(=O)NCC2OCCN2S(=O)(=O)c2ccc(OC)c(C)c2)cc1 (stereo not drawn)	?	-27%
O=C(/C=C/Sc1ccccc1)c1ccccc1	-10%	-5%
O=S(=O)(c1ccc2nc(COc3ccc(Cl)cc3Cl)[nH]c2c1)N1CCOCC1	?	?
COc1cccc(-c2onc3ccc(C(=O)/C=C/N(C)C)cc23)c1	-29%	-6%
CCOC(=O)C1=C(c2ccccc2)NC(N)=NC1c1ccc(OCc2ccc(C(=O)OC)cc2)cc1 (stereo not drawn)	?	?
COc1ccc(CCC(C)NC(=O)CCc2ccccc2)c(OC)c1 (stereo not drawn)	-2%	-17%
CN1CCN(C(=O)CCn2c(=S)[nH]c3ccccc3c2=O)CC1	-15%	-10%
Cn1c(=NC(=O)c2ccco2)sc2ccccc21	-28%	-22%
CCCNC(=O)C1Cc2cc(S(=O)(=O)N3CCCC3)ccc2N1C(C)=O (stereo not drawn)	-16%	-4%
C#CCCOC(=O)N1C2=NC(C(=O)OC)=C(C(=O)OC)[C@@H]3N(CC=C)c4ccccc4[C@]23C[C@H]1C(=O)OC	-2%	-25%
O=c1[nH]c2ccccc2[nH]c1=O	-15%	-6%
O=C(NCC(=O)N1CCN(Cc2c(F)cccc2Cl)CC1)c1cccc(Cl)c1	i	-14%
CCOc1ccc(S(=O)(=O)Nc2cccc(C(=O)NCC(c3ccccc3)N(C)C)c2)cc1 (stereo not drawn)	-20%	?
Remaining list, next part
SMILES	VACV mCherry inh	VACV Venus inh
Cc1ccc(C(=O)N/C(=C\c2ccco2)C(=O)NC2CCS(=O)(=O)C2)cc1 (stereo not drawn)	-1%	16%
CCN(C(=O)CSc1ncnc2sc(C)c(C)c12)C1CCS(=O)(=O)C1 (stereo not drawn)	i	-14%
N#Cc1cc2c(=O)n3ccccc3nc2n(-c2nnc(SCc3ccc(F)cc3)s2)c1=O	-1%	4%
Cc1cccc(C(=O)Nc2nc(C)c(C(=O)Nc3ccc4c(c3)CCC4)s2)c1	?	-25%
CC(C)(C)N/C=C(\C#N)S(=O)(=O)c1ccc(Br)cc1	-18%	-13%
CNC(=O)c1ccccc1-c1cn(C)c2ccccc2c1=O	-14%	-8%
COc1c(C)cc(C(O)c2ncc(-c3ccccc3C)[nH]2)cc1C (stereo not drawn)	21%	-5%
CC(C)(C)[C@H]1C=C(C(=O)NC2CC2)O[C@@H](OCCCCO)C1	i	-5%
CCOc1ccccc1Nc1nc(-c2sc(NC(=O)c3ccco3)nc2C)cs1	?	?
Cc1ccccc1-c1nc(CN2CCC(C(=O)O)CC2)c(C)o1	-14%	-12%

By substructure: the compounds so far containing a nitro group on carbon.
SMILES	VACV mCherry inh	VACV Venus inh
CCn1cc([N+](=O)[O-])c(C(=O)NCc2ccc3c(c2)OCO3)n1	-20%	-5%
NC(=O)CC(NC(=O)Cc1ccc(Br)cc1)c1ccc(NCCOc2ccccc2)c([N+](=O)[O-])c1 (stereo not drawn)	?	-11%
O=C(c1ccccc1[N+](=O)[O-])n1cnc2ccccc21	i	-1%
N/C(=N\OC(=O)c1ccc2ccccc2c1)c1cccc([N+](=O)[O-])c1	-1%	-16%
NNC(=O)c1nc[nH]c1C(=O)Nc1ccccc1[N+](=O)[O-]	-22%	-23%
O=[N+]([O-])c1cccnc1N1CCC(c2cc(-c3ccc(Cl)cc3Cl)n[nH]2)CC1	?	?

(continued)
SMILES	VACV mCherry inh	VACV Venus inh
CC(C)C(c1nnnn1Cc1ccccc1)N1CCN(Cc2ccco2)CC1 (stereo not drawn)	·	-20%
COc1cc(-c2nnc(COC(=O)c3nn(CC(C)C)c(=O)c4ccccc34)o2)cc(OC)c1OC	-15%	-9%
COc1ccccc1C(=O)NC(=O)COC(=O)c1cc[n+]([O-])cc1	-17%	-15%
COc1c(C)cc(C(O)c2ncc(-c3ccc(C(F)(F)F)cc3)[nH]2)cc1C (stereo not drawn)	i	-7%
COc1ccc(-c2cn(CCC(=O)O)c(-c3ccc(Cl)nc3)n2)cc1	i	-1%
CC(C)=C1C2C=CC1C(C(=O)Nc1cccc(C)c1)C2C(=O)O (stereo not drawn)	-8%	-1%
